# Mtb bLac sens – beta-lactam sensitization of Mtb H37Rv; M. tuberculosis H37Rv growth with meropenem, percent inhibition; hits of this screen are not shown here; inhibition, % at 25 µM; hit rate 0.27% among 330,000;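 active = about 74% or more and at least 40 points above the plate without the antibiotic, then above 30% in a dose series; inconclusive = first-round hits that could not be retested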;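 also: growth measured after seven days incubation then overnight dye step; 0% = bacteria only wells and 100% = bacteria with antibiotic; twin plates without the antibiotic show which effects depend on it; some results filed as inactive read as strong as hits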
# YopH inh – inhibitors of Yersinia enterocolitica YopH tyrosine phosphatase; fluorescence Ex485/Em525; inhibition, %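 (about 10 µM by stock and volumes)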; hit rate 0.16% among 140,000; AID 898;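 active = inhibition of 50% or more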;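 also: controls were vehicle for no effect and minimum signal wells for full effect; inactives centre near -20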
# RecA splice inh – Mtb RecA intein splicing inhibition | P9WHJ3 | cell-free RecA intein splicing, fluorescence | inhibition, %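 (about 9 µM by stock and volumes)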 | hit rate 0.75% among 290,000; in the data active = inhibition above about 30%; inconclusive = no clear call, values can overlap the other calls;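 also: 0% = vehicle wells and 100% = reference inhibitor control wells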
# Target sequence (P9WHJ3 whole entry, looked up, canonical isoform): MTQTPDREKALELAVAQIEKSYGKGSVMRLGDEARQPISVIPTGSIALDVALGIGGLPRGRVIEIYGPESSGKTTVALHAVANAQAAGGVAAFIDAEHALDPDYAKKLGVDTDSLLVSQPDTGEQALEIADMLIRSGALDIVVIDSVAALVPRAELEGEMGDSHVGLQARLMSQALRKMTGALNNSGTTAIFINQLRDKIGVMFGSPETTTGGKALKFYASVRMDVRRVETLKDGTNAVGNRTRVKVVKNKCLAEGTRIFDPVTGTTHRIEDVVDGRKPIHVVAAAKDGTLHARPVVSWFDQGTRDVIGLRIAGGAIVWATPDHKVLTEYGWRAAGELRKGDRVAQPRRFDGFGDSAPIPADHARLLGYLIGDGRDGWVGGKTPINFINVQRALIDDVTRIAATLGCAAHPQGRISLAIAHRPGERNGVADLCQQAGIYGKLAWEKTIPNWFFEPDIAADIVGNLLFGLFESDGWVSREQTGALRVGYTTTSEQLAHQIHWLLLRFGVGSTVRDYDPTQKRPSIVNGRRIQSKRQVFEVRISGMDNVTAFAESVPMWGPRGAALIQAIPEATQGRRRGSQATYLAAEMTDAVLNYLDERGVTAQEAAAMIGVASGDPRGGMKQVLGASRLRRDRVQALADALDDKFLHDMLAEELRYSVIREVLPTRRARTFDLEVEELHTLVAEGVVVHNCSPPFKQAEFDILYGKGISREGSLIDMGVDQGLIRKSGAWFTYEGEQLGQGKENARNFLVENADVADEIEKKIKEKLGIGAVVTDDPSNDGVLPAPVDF
# Arbovirus inh – antivirals against arbovirus infection. arbovirus infection cell-based antiviral screen. inhibition, % at 10 µM. hit rate 0.37% among 200,000;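 active = inhibition from about 30%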;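 also: bluetongue infection of BSR cells; cell survival read as ATP light after 72 h; 0% = infected wells without compound and 100% = uninfected wells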
# Mtb H37Rv – M. tuberculosis H37Rv growth inhibitors, H37Rv strain (AID 1626); M. tuberculosis H37Rv growth inhibition; higher % means a stronger effect; hit rate 0.95% among 220,000; inhibition, % at 10 µM; hits with a dose series show IC50 in µM;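 active = confirmed in a dose series; inconclusive = inhibition above 80% but not taken into the dose series; inactive = below 80% or under 30% at every dose of the series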;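 also: bacteria incubated seven days before Alamar blue readout; 0% = bacteria only wells and 100% = bacteria with antibiotic wells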
# Arbovirus inh repeat – recorded beside Arbovirus inh, whose call it bears; inhibition, %; measured here: 10K subset replicate screen; many hits read low in the repeat;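 first of two repeat runs on a subset; 0% = infected and 100% = uninfected wells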
# The depositor's hits bear a star; u = inconclusive; x = no result given.
SMILES,Mtb bLac sens,YopH inh,RecA splice inh,Arbovirus inh,Mtb H37Rv,others
Cc1nnc2n(c1=O)N=C(c1ccc(Cl)cc1)CS2,6,-17,1.5,3,2%,
COc1ccc(CCC(=O)N(C)CC(=O)Nc2cc(C)ccc2C)cc1,4,x,-1.3,2,1%,
Cc1ccccc1OCC(=O)Nc1ccc(C)c(S(=O)(=O)N2CCCCCC2)c1,0,x,11,x,x,
COc1ccc(-c2cnnn2-c2ccc(NC(=O)c3ccc(S(=O)(=O)N4CCCCC4)cc3)cc2)cc1OC,8,-29,3.6,-10,50%,
CC(=O)[C@@]1(O)[C@H](C)CC2C3CC=C4CC(OP(=O)(O)O)CC[C@]4(C)C3CC[C@@]21C (some centres not stated),0,x,-3.7,x,x,
Brc1ccc(-c2c[n+]3c(n2-c2ccccc2)SCC3)cc1,-9,x,-1.0,x,2%,
CCc1ccc(NC(=O)CSc2nc3ccccc3nc2N2CCCCC2)cc1,-10,x,0.7,x,x,
O=C(Nc1ccc(C(=O)O)cc1)/C(=C\c1cccc([N+](=O)[O-])c1)NC(=O)c1ccc(Br)o1,-8,x,0.6,5,-5%,
Cc1cccc(NC(=O)c2cccc3c2C(=O)c2ccccc2-3)c1,-10,-29,-0.7,-20,x,
CCOc1ccc(N2C(=O)CC(N3CCC(O)(c4ccc(Br)cc4)CC3)C2=O)cc1 (configuration not stated),24,-20,0.4,3,7%,
Cc1c(C(=O)O)sc2c1c(=O)n(Cc1ccccc1)c(=O)n2C,-2,x,0.5,x,x,
COc1ccc(C2c3c(ncn(CCCO)c3=N)Oc3ccc4ccccc4c32)cc1 (configuration not stated),18,x,2.2,x,10%,
COc1ccc(S(=O)(=O)NCC(c2cccnc2)N2CCN(c3ccccc3)CC2)cc1C (configuration not stated),21,-2,2.6,1,x,
COc1ccc(CCN2C(=O)C3CC(C)=C(C)CC3C2=O)cc1OC (configuration not stated),4,-7,-0.1,4,-9%,
CCC(=O)Nc1cnc(NC(=O)c2cccc(F)c2)cc1C,5,-1,1.2,-8,-8%,
Cc1cc(-c2n[nH]c(=S)n2-c2ccc(F)cc2)nn1C,11,x,1.5,1,-3%,
CCOC(=O)c1c[nH]n2c(=O)cc(C)nc12,2,x,0.9,x,-2%,
C#CCn1c(=NC(=O)c2cccs2)sc2cccc(OCC)c21,-3,-8,-5.2,-8,5%,
O=C(CCc1c[nH]c2ccccc12)NCCc1ccccc1,3,x,2.5,x,x,
CCOc1ccc(NC2c3ccccc3C(=O)N2c2ccc(Cl)cn2)cc1 (configuration not stated),-1,-32,-4.2,2,7%,Arbovirus inh repeat=-6
O=C(NC1(C(F)(F)F)N=C2SCCN2C1=O)C1CCCCC1 (configuration not stated),-3,-29,-4.1,-3,-4%,
Cc1cccc(NC(=S)NCCN2CCOCC2)c1,-4,-21,-1.7,-2,1%,
N#Cc1c(NC(=O)C2CC(c3ccccc3Cl)=NO2)sc2c1CCC2 (configuration not stated),4,-23,1.6,-5,-12%,
COc1cccc(C2C3=C(CC(C)(C)CC3=O)Nc3n[nH]c(C)c32)c1 (configuration not stated),0,x,0.3,0,3%,
C=CCn1c(SCC(=O)Nc2ccc(-c3nc4ccc(C)cc4s3)cc2)nnc1-c1ccncc1,14,-13,1.3,-3,2%,
# Next part
SMILES,Mtb bLac sens,YopH inh,RecA splice inh,Arbovirus inh,Mtb H37Rv,others
Cc1onc(-c2ccccc2)c1C(=O)N(C)CCc1ccccn1,-3,x,1.3,x,x,
CN1C=CC(=CC=C2C=CC(=O)C=C2)C=C1,0,x,-1.3,x,-10%,
O=C(CNC(=O)Cn1ccc2ccccc2c1=O)NCCCN1CCN(c2cccc(Cl)c2)CC1,-3,15,-2.8,-1,-9%,Arbovirus inh repeat=5
CCn1c(CNC(=O)c2ccccc2F)nnc1SCc1nc2ccccc2c(=O)[nH]1,-3,x,-2.5,0,-9%,
Cc1ccc2nc(-c3ccc(N4C(=O)CC(N5CCC(C(N)=O)CC5)C4=O)cc3)sc2c1 (configuration not stated),17,-24,0.6,5,0%,
CCOC(=O)c1sc(=S)n(-c2cccc(OC)c2)c1N,-11,-27,x,1,1%,
CN(CC(O)COc1ccccc1F)C1CCCCC1 (configuration not stated),-3,x,0.1,3,3%,
CC(NC(=O)CCCCCN1C(=O)c2ccccc2C1=O)c1ccc2c(c1)CCCC2 (configuration not stated),11,4,-2.9,14,-2%,
Cc1n[nH]c(=O)nc1NCC1CCCO1 (configuration not stated),-3,27,-9.7,2,-7%,
COC(=O)c1c(C)[nH]c(C(=O)C(C)Sc2nnc(-c3cc(OC)c(OC)c(OC)c3)o2)c1C (configuration not stated),-4,-29,0.2,10,12%,
O=C1C(C2=NC(c3ccccn3)C3C(=O)N(c4ccccc4)C(=O)C23)=C(O)c2ccccc21 (configuration not stated),4,x,-2.4,x,x,
Cc1cc(N2CCC(C)CC2)n2ncc(-c3ccccc3)c2n1,87,-3,0.1,8,9%,
O=C1CCCN1CC(=O)N1CCCC(Nc2cccc(F)c2)C1 (configuration not stated),-5,x,-3.0,x,x,
O=C(Cc1ccccc1)Oc1ccccc1N1C(=O)CCC1=O,-11,2,0.6,1,-6%,
CC#CC[N+](C)(C)CC(=O)c1ccccc1,-4,x,-1.3,x,6%,
COc1ccc(N2CCC(CNC(=O)Nc3cccc(OC)c3)C2)cc1 (configuration not stated),43,-10,-1.1,-22,9%,
CC(C)Nc1nc(-c2ccncc2)nc(-c2ccc(Cl)cc2)c1C#N,0,x,0.8,2,5%,
CC1=NN(c2nc(-c3ccc(C)cc3)cs2)C(=O)C1N=Nc1ccc(C(N)=O)cc1 (configuration not stated),-6,x,3.4,-38,7%,
Cc1noc(C)c1C(=O)N1CCN(c2ccc(OCc3ccccc3)cc2)CC1,30,x,-7.6,x,-2%,
CCc1c(C)n([O-])c2c([n+]1=O)CCCCC2,-4,-21,0.0,3,-2%,
COc1ccc(-n2nc([N+](=O)[O-])c(=NCCc3ccc(Cl)cc3)n2O)cc1,19,-22,-2.7,-9,x,
CCOc1cccc(C(=O)Nc2ccc(S(=O)(=O)Nc3cc(C)on3)cc2)c1,3,x,-3.5,x,x,
COc1ccccc1N1CCN(C(=O)c2oc3ccc(F)cc3c2C)CC1,8,3,7.4,0,4%,
CCOC(=O)NC(=O)CSc1nc2ccc([N+](=O)[O-])cc2[nH]1,0,x,0.0,10,5%,
CC(C)(C)C(O)/C=C/c1ccc2c(c1)OCO2 (configuration not stated),3,x,3.9,x,2%,

# A section from the list above:
SMILES,Mtb bLac sens,YopH inh,RecA splice inh,Arbovirus inh,Mtb H37Rv,others
CCn1c(CNC(=O)c2ccccc2F)nnc1SCc1nc2ccccc2c(=O)[nH]1,-3,x,-2.5,0,-9%,
Cc1ccc2nc(-c3ccc(N4C(=O)CC(N5CCC(C(N)=O)CC5)C4=O)cc3)sc2c1 (configuration not stated),17,-24,0.6,5,0%,
CCOC(=O)c1sc(=S)n(-c2cccc(OC)c2)c1N,-11,-27,x,1,1%,
CN(CC(O)COc1ccccc1F)C1CCCCC1 (configuration not stated),-3,x,0.1,3,3%,
CC(NC(=O)CCCCCN1C(=O)c2ccccc2C1=O)c1ccc2c(c1)CCCC2 (configuration not stated),11,4,-2.9,14,-2%,
Cc1n[nH]c(=O)nc1NCC1CCCO1 (configuration not stated),-3,27,-9.7,2,-7%,
COC(=O)c1c(C)[nH]c(C(=O)C(C)Sc2nnc(-c3cc(OC)c(OC)c(OC)c3)o2)c1C (configuration not stated),-4,-29,0.2,10,12%,
O=C1C(C2=NC(c3ccccn3)C3C(=O)N(c4ccccc4)C(=O)C23)=C(O)c2ccccc21 (configuration not stated),4,x,-2.4,x,x,
Cc1cc(N2CCC(C)CC2)n2ncc(-c3ccccc3)c2n1,87,-3,0.1,8,9%,
O=C1CCCN1CC(=O)N1CCCC(Nc2cccc(F)c2)C1 (configuration not stated),-5,x,-3.0,x,x,
O=C(Cc1ccccc1)Oc1ccccc1N1C(=O)CCC1=O,-11,2,0.6,1,-6%,
CC#CC[N+](C)(C)CC(=O)c1ccccc1,-4,x,-1.3,x,6%,
COc1ccc(N2CCC(CNC(=O)Nc3cccc(OC)c3)C2)cc1 (configuration not stated),43,-10,-1.1,-22,9%,
CC(C)Nc1nc(-c2ccncc2)nc(-c2ccc(Cl)cc2)c1C#N,0,x,0.8,2,5%,
CC1=NN(c2nc(-c3ccc(C)cc3)cs2)C(=O)C1N=Nc1ccc(C(N)=O)cc1 (configuration not stated),-6,x,3.4,-38,7%,
Cc1noc(C)c1C(=O)N1CCN(c2ccc(OCc3ccccc3)cc2)CC1,30,x,-7.6,x,-2%,
CCc1c(C)n([O-])c2c([n+]1=O)CCCCC2,-4,-21,0.0,3,-2%,

# The listing continues.
SMILES,Mtb bLac sens,YopH inh,RecA splice inh,Arbovirus inh,Mtb H37Rv,others
Cc1ccc(SCCC(=O)NCC2CCCO2)cc1 (configuration not stated),6,-20,-2.1,0,1%,
CN1C(=O)N(C)C2C1N(CN1CCCCC1)C(=O)N2CN1CCCCC1 (configuration not stated),18,-50,-7.3,9,-4%,
COc1cccc2cc(-c3cc(=O)oc4ccc(OCC(C)=O)cc34)oc12,1,x,-4.8,x,x,
O=C(CCc1ccc(Oc2cc([N+](=O)[O-])cc([N+](=O)[O-])c2)cc1)Nc1cccc(Cl)c1,95,-24,6.4,7,u,
COc1ccc(NC(=O)C(c2ccc(Cl)cc2)C(C)C)cn1 (configuration not stated),4,x,4.0,x,x,
COc1cccc(-c2csc(NC3OC(=O)c4c3ccc(OC)c4OC)n2)c1 (configuration not stated),50,x,4.3,x,1%,
O=C(NCCN=C1NS(=O)(=O)c2ccccc21)c1ccncc1,-8,-6,1.7,11,-2%,
CCCC(=O)Nc1ccc2c(c1)nc(CCNC(=O)c1ccccc1)n2C,-2,-20,-6.4,10,-11%,
O=c1c2sc3ccccc3c2[nH]c(=S)n1CCN1CCOCC1,-6,x,26,4,1%,
CCN(c1ccccc1)S(=O)(=O)c1ccc(Cl)c(NC(=O)CN(C)C2CCN(C)CC2)c1,-9,x,0.6,x,5%,
O=C(Cc1ccccc1)NNC(=S)NC(=O)c1cccnc1,5,x,0.5,x,-3%,
O=C(CSc1nnc(Cn2c(=O)sc3ccccc32)n1-c1ccccc1)NCC1CCCO1 (configuration not stated),-3,-11,-2.1,12,9%,Arbovirus inh repeat=-2
CCCn1ncc(CN2CCC(Cc3cccc(F)c3)(C(=O)OCC)CC2)c1C,0,x,-3.4,-12,-4%,
CCCCNCCCOc1cccc(Cl)c1Cl,-1,-12,-1.1,-8,-7%,
O=[N+]([O-])c1ccc(NCCOc2ccccc2Cl)nc1,7,x,-2.0,x,x,
O=C1OCCC1Sc1nc2cc(Cl)ccc2s1 (configuration not stated),-8,-30,-3.2,2,-11%,
O=C(CNC(=O)N1CC(=O)Nc2ccccc21)NCCc1ccc(Cl)cc1,-1,x,-1.3,x,x,
Nc1ccccc1C#CCCCCO,-1,-32,-3.2,5,10%,
CCOC(=O)c1c(NC(=O)C2CCCCC2C(=O)O)sc2c1CCCCC2 (configuration not stated),-6,x,x,26,0%,
COc1ccccc1N1C(=O)C(Cl)=C(N2CCCC2)C1=O,-7,x,-1.0,x,x,
O=C(O)c1ccccc1-n1c2ccccc2c2ccccc21,-5,x,1.6,x,-12%,
Cc1c(C(=O)Nc2ccc(F)cc2)c2ccccn2c1CCc1ccncc1,-11,-22,0.2,10,2%,
CC1CC(C)CN(Cc2nc(N)nc(Nc3ccccc3)n2)C1 (configuration not stated),70,-2,1.0,4,2%,
CC(C)(C)n1nc2c(c1NC(=O)c1cccs1)CS(=O)C2 (configuration not stated),-9,16,1.5,-5,-6%,
CCN(c1ccc(NC(=O)CSc2nnc3nc(C)cc(C)n23)cc1)C(C)C,-6,18,1.1,6,-7%,
# Next section.
SMILES,Mtb bLac sens,YopH inh,RecA splice inh,Arbovirus inh,Mtb H37Rv,others
Nc1nc(-c2cccnc2)nn1C(=O)COc1ccccc1,7,0,-1.0,1,-7%,
O=C(O)c1ccc(/C=C2/SC(=S)N(Cc3ccccc3)C2=O)cc1,6,x,0.4,x,x,
CC(Sc1nnc(Cc2cccs2)n1C1CCCCC1)C(=O)NCc1ccco1 (configuration not stated),-1,9,1.4,-5,-4%,
N#C/C(=C\c1cn[nH]c1-c1ccc(Cl)cc1)C(=O)NC1CC1,u,-35,-8.8,5,10%,
Cc1ccc2cc(CN(CC3CCCO3)C(=O)c3cccs3)c(=O)[nH]c2c1 (configuration not stated),-2,x,4.1,x,x,
Cc1nc2ccc(NC(=O)c3cc(Cl)ccn3)cc2s1,-4,x,3.3,x,x,
CCCN1CCN(CCCNC(=O)c2ccc3nc(N4CCCCC4)sc3c2)CC1,8,x,-0.9,x,x,
CCOC(=O)C1=NNC(C(=O)c2ccc(OC)cc2)C1c1ccccc1 (configuration not stated),5,-13,7.9,-4,4%,

# These rows are one share of the data. The share of hits here may be higher or lower than overall.
